StopGo FLuc – lowers the firefly signal of an FMDV 2A StopGo reporter. actives 0.23% (n = 120,000). Potency, µM (highest dose often 57.5 µM), for inactives: at the top dose signal change, negative = less light. AID 1745856. HEK cells with a luciferase reporter of 2A StopGo recoding; active = well fitted falling curve with a large enough effect; inconclusive = small, poorly fitted or top-dose-only effect; inactive = no such curve, though single readings can be large or run the other way; also: nearly all actives have a fitted effect of over 60% in size; overnight with compound
2A Renilla – lowers the Renilla signal of an FMDV 2A StopGo reporter. HEK cells with a luciferase reporter of 2A StopGo recoding. Potency, µM (series often up to 57.5 µM), for inactives: at the highest dose signal change, negative = less light. actives 0.32% (n = 120,000). AID 1745857; active means well fitted falling curve with a large enough effect; inconclusive means small, poorly fitted or top-dose-only effect; inactive means no such curve, though single readings can be large or run the other way; also: nearly all actives have a fitted effect of over 55% in size; overnight with compound
An asterisk follows results filed as active; ? = inconclusive; [ ] = remark or other dose. % is scaled to controls: 0 for no effect and ±100 for the full control effect; potency is read from the fitted curve at half-maximal effect.

Each structure is followed by: StopGo FLuc | 2A Renilla
CC(=O)c1cccc(NC(=O)COc2ccc3c(C)cc(=O)oc3c2)c1
  4% | -2%
COc1ccc(CN2CCN(C(C)c3nnc(-c4ccccc4)o3)CC2)cc1F (stereo not given)
  21% | -4%
CCOc1ccc(N(CC(=O)Nc2cc(C)ccc2C)S(=O)(=O)c2c(C)[nH]c(=O)[nH]c2=O)cc1
  -6% | 0%
CC(C)NS(=O)(=O)c1ccc(C(=O)NCc2ccc(-c3nc4ccccc4s3)o2)cc1
  0% | -11%
Cc1ccc(S(=O)(=O)N2CCC(C(=O)Nc3ccc(Oc4ccccc4)cc3)CC2)cc1
  -16% | -8%
Cn1c2c(c(=O)[nH]c1=O)C(c1ccc(C(=O)O)cc1)C1=C(N2)c2ccccc2C1=O (stereo not given)
  -5% | -8%
CCN1CCN(c2nc3c(c(=O)[nH]c(=O)n3C)n2CC(O)COc2ccc(Cl)cc2)CC1 (stereo not given)
  -7% | -15%
CC(NCCC(=O)N1CCN(c2ncccn2)CC1)c1ccc(Cl)cc1Cl (stereo not given)
  5% | -5%
O=C(NC1=N[C@@]2(C=C3CCCCC3n3c(=O)n(-c4ccccc4)c(=O)n32)[C@H](Cc2ccccc2)N1Cc1ccccc1)c1ccccc1 (stereo not given in full)
  -17% | 46%[activator]
O=C(CCc1ncc(-c2c(F)cccc2F)o1)N1CCN(S(=O)(=O)c2cc(F)ccc2F)CC1
  14% | 0%
O=C(Nc1ccc(-c2nc3ccccc3o2)c(O)c1)c1cccc(I)c1
  29% | 7%
CCNc1c(NC(=O)c2ccc(OC(C)=O)c(OC)c2)c(=O)oc2ccccc12
  -4% | -11%
CCOc1cc(CNC(=O)Cn2ncn3c(cc4cc(F)ccc43)c2=O)cc(OCC)c1OCC
  -11% | -5%
Cc1cc(SCC(=O)N(C)C2CCCCC2)nc2ccccc12
  7% | 2%
O=C(Nc1cc(Cl)ccc1Cl)C12CC3CC(CC(C3)C1)C2
  12% | -5%
CC(OC(=O)Cc1n[nH]c(=O)c2ccccc12)C(=O)c1ccc2c(c1)CCC2 (stereo not given)
  18% | -2%
Cc1ccc(Cl)cc1NC(=O)c1cnc(N2CCCCC2)c2ccccc12
  -3% | -9%
CN(Cc1ccccc1Cl)C(=O)c1ccc2c(c1)CCN2S(C)(=O)=O
  10% | 70%[activator]
Cc1c(C)c(C)c(S(=O)(=O)Nc2cc(Cl)ccc2C(=O)N(C)C)c(C)c1C
  -16% | 165%[activator]
CCC(=O)N1CCN(c2ccc(NC(=O)c3c(OC)cccc3OC)cc2)CC1
  104%[activator] | 50%[activator]
COc1ccc(C(=O)COC(=O)CNC(=O)c2cc(OC)cc(OC)c2)cc1
  0% | 9%
Cc1c(F)cc(C(N)=O)cc1NS(=O)(=O)c1ccc2ccccc2c1
  -4% | 150%[activator]
Cc1ccc(N2CC(C(=O)NCCS(=O)(=O)N3CCN(c4ccccc4)CC3)CC2=O)cc1C (stereo not given)
  -8% | -5%
Cc1c(Cl)cccc1NC(=O)CN1C(=O)COc2ccc(S(=O)(=O)N3CCOCC3)cc21
  -10% | 0%
CC(=O)c1ccc(NC(=O)Cn2c(-n3nc(C)cc3C)nc(C)cc2=O)cc1
  32%[activator] | 31%[activator]
CCOc1ccc2c(=O)c(Oc3ccc(OC)cc3)c(C(F)(F)F)oc2c1
  0% | 23%
CCOc1cc(/C=C2\NC(=O)NC2=O)cc(I)c1OC(C)C
  23% | -8%
CCC(C)NC(=O)Cn1c(-c2cccs2)cc2cc(Cl)ccc21 (stereo not given)
  -11% | -14%
Cc1cc(C)cc(Nc2sc(C(=O)c3ccccc3)c(N)c2S(=O)(=O)c2ccccc2)c1
  -17% | 49%[activator]
Cc1cc2c(cc3c(=O)n(CC(=O)NCc4ccccc4Br)ncn32)s1
  -6% | -4%
COc1cc(CNC(=O)C2CCCCN2S(=O)(=O)c2ccc(F)cc2)cc(OC)c1OC (stereo not given)
  ? | ?
CCOc1ccc(C2c3c(-c4ccc(C)cc4)n[nH]c3C(=O)N2c2ccc(Cl)cc2)cc1 (stereo not given)
  ? | ?
Cn1c(=O)c2c(nc(NCCO)n2Cc2cccc(Br)c2)n(C)c1=O
  ? | 13µM*
CC(=O)Nc1nonc1-c1nnc(SCc2ccccc2Cl)n1C
  -6% | 0%
CCn1cc2nc(SCC(=O)Nc3cccc(Cl)c3C)n(Cc3ccc(Cl)cc3)c(=O)c2n1
  -5% | -6%
O=C(NC1CCCC1)C1CCCN(c2ncnc3nc[nH]c23)C1 (stereo not given)
  7% | -1%
CC(C)(C)CC(C)(C)c1ccc(O)c(Sc2cc(C(C)(C)CC(C)(C)C)ccc2O)c1
  9% | 32%
Cc1ccc2nc(Cl)c3cc(C(=O)NC(C)CCc4ccccc4)sc3c2c1 (stereo not given)
  0% | 23%
COc1ccc(N(CC(=O)NC(C)c2ccccc2)S(=O)(=O)c2c(C)noc2C)cc1 (stereo not given)
  -33% | 29%
COc1ccc(C)cc1NC(=O)C(=O)c1cn(CC(=O)N2CCOCC2)c2ccccc12
  17% | 5%
Cc1ccccc1S(=O)(=O)N1CCC(C(=O)NCc2csc(-c3ccccc3)n2)CC1
  -23% | -2%
CCCSc1ncc(Cl)c(C(=O)NCc2ccc(OC)cc2)n1
  21% | 11%
COc1ccc2nc(/C=C/c3cccc(O)c3)sc2c1
  40%[activator] | 14%
CC(C)(C)c1ccc(/C=C/C(=O)N[C@@H]2C[C@H]3CC[C@@H]2C3)cc1
  0% | 14%
Cc1ccc(S(=O)(=O)Nc2ccc3c(c2)CCCN3C(=O)c2cccs2)cc1
  ? | 110%[activator]
Cc1cc(C(c2ccc(Cl)cc2Cl)N2CCOCC2)c(NC(=O)c2ccco2)s1 (stereo not given)
  -5% | -12%
Cc1ccc(-n2ncc(C(=O)NCCN3CCc4ccccc4C3)c2C2CCN(C(=O)OC(C)(C)C)CC2)cc1
  -16% | 69%[activator]
O=C1CN(C(=O)c2ccc(S(=O)(=O)N3CCCC3)cc2)C(c2ccccc2)c2cc(F)ccc2N1 (stereo not given)
  33%[activator] | 65%[activator]
N#Cc1ccc(Cl)cc1NC(=S)NCCc1ccccc1
  8% | 12%
O=C(CSc1nccn2nc(-c3cccc4ccccc34)cc12)NCc1ccc(F)cc1
  42%[activator] | 19%
Fc1ccccc1CNCCN1CCCC1
  -12% | 6%
COc1cc(NC(=O)c2cc(-c3ccccc3O)no2)cc(OC)c1OC
  32%[activator] | 32%[activator]
CCOc1nc2ccccc2nc1N1CCC(C(=O)Nc2cccc(CC)c2)CC1
  4% | 0%
Cc1cc(=O)oc2cc(NC(=O)Cc3ccccc3)ccc12
  94%[activator] | 7%
Nc1ncc(S(=O)(=O)Nc2ccc(OC(F)(F)F)cc2)cn1
  -12% | 8%
Cc1ccccc1C(=O)OCC1CCC[N+]2(C)CCCCC12 (stereo not given)
  -8% | -12%
COCC(=O)N1CCN(c2oc(-c3ccccc3)nc2S(=O)(=O)c2ccccc2)CC1
  -6% | 51%[activator]
Cc1cccc(NC(=O)CN2CCN(CCc3ccccc3)CC2)c1
  -9% | -12%
Cc1ccccc1CNC(=O)CCCn1nc(C)c2sc3ccccc3c2c1=O
  -13% | -7%
COc1ccc(CNC(=O)Cn2ncc3c(=O)oc4ccc(C)cc4c32)c(OC)c1
  0% | -22%

Additional compounds:
Each structure is followed by: StopGo FLuc | 2A Renilla
CC(O)CNS(=O)(=O)c1cc(Cl)c(Cl)cc1Cl (stereo not given)
  0% | 253%[activator]
CCc1ccc2c(c1)NC(c1ccc(C)cc1)=NC(c1cccs1)=N2
  103%[activator] | 20%
CC1=C(C(=O)N2CCN(c3cccc(C)c3C)CC2)C2(CCCCC2)OC1=O
  0% | 15%
COc1ccc(CC(=O)NC(c2cccs2)C(C)C)c(OC)c1OC (stereo not given)
  14% | 19%
Cc1cccc(-n2nnnc2C2(NC3CCCCC3)CCCCC2)c1
  0% | 171%[activator]
CCCCCOc1ccc(C2SC(=O)NC2=O)cc1OCC (stereo not given)
  19% | -10%
CCc1ccc(CN(Cc2ccco2)c2cnc(S(C)(=O)=O)nc2C(=O)Nc2cccc(C)c2)cc1
  -11% | -2%
COC(=O)Cn1cnc2c1c(=O)n(C)c(=O)n2C
  -5% | -9%
Cc1cc(C)c(NC(=O)CC(C)(C)CC(=O)O)c(C)c1
  25% | 10%
COc1ccc(-n2nnc(-c3nsc(NC(=O)c4cccs4)n3)c2C)cc1OC
  66%[activator] | 0%
O=C(NC1CC1)c1cc(-c2ccc3c(c2)OCCO3)nc2ccccc12
  83%[activator] | 45%[activator]
COCCCNCCSc1ccc(Cl)cc1
  -6% | -7%
Cc1cc(C)c2oc(C(=O)Nc3ccc(S(=O)(=O)Nc4nccc(C)n4)cc3)cc(=O)c2c1
  2% | 0%
C[C@H]1COc2cc(Br)ccc2S(=O)(=O)N1Cc1cn(Cc2ccc(C(F)(F)F)cc2)nn1
  0% | 1%
Clc1ccccc1-c1nnnn1-c1ccccc1Cl
  -12% | 56%[activator]
CC(C(=O)Nc1ccc(Cl)cc1)N1CCN(c2ccc([N+](=O)[O-])c3cnccc23)CC1 (stereo not given)
  -15% | -24%
N#C/C(=C/c1ccccc1OC(F)(F)F)c1ccccn1
  1% | 3%
N#CCCN1CCCC1CCc1ccccc1 (stereo not given)
  -3% | -17%[1.06 µM]
COc1ccc2c(Sc3ccccc3)c(C(=O)NCc3ccc(OC(C)C)cc3)[nH]c2c1
  -6% | 23%
CN(C)c1ccc(CNC(=O)c2cc3cc(S(=O)(=O)N4CCCCC4)ccc3n2C)cc1
  -24% | -30%

Copied from the list:
Entry for CC(O)CNS(=O)(=O)c1cc(Cl)c(Cl)cc1Cl (stereo not given) under StopGo FLuc: 0%
Entry for CC1=C(C(=O)N2CCN(c3cccc(C)c3C)CC2)C2(CCCCC2)OC1=O under StopGo FLuc: 0%
Entry for N#Cc1ccc(Cl)cc1NC(=S)NCCc1ccccc1 under 2A Renilla: 12%
Entry for O=C(NC1=N[C@@]2(C=C3CCCCC3n3c(=O)n(-c4ccccc4)c(=O)n32)[C@H](Cc2ccccc2)N1Cc1ccccc1)c1ccccc1 (stereo not given in full) under StopGo FLuc: -17%

Remaining list, next part
Each structure is followed by: StopGo FLuc | 2A Renilla
COC(=O)Oc1ccc2c(=O)c(Oc3ccc(C)cc3)coc2c1
  101%[activator] | 15%
COc1ccc(N2CCN(Cc3nc4c(c(=O)[nH]c(=O)n4C)n3Cc3ccc(Cl)cc3)CC2)cc1
  -10% | -10%
CC(=O)N1CCC2(CC1)OC(=O)C(C)=C2C(=O)NCCN1CCCC1
  -2% | -4%
CC(=O)c1ccc(NC(=O)Cc2c(C)c3ccc(O)cc3oc2=O)cc1
  2% | 18%
NC(=O)c1cccc(OCc2coc(-c3cccc(F)c3)n2)c1
  219%[activator] | -2%
CCOC(=O)c1c(S(=O)(=O)Nc2ccc(OC)cc2OC)c(C)n(C)c1C
  2% | 209%[activator]
Cc1cc2c(cc3c(SCc4ccccc4Cl)nnc(C)n32)o1
  49%[activator] | 7%
N#Cc1ccc(OC(=O)Cc2ccc(F)cc2)cc1
  9% | 5%
CCN1C2=C(C(=O)CC(C)(C)C2)C(c2ccc(O)cc2)C2=C1CC(C)(C)CC2=O
  -9% | 0%
Cc1ccc(Cn2c(=O)c3ccccc3n3c(-c4cccc(O)c4)nnc23)cc1
  -11% | 10%
CCc1ccccc1OCc1nnc(SCc2cc(=O)c3ccccc3[nH]2)n1C
  ? | ?
CC1Cc2ccccc2N1C(=O)Cn1c(=O)c2c(ncn2C2CCCC2)n(Cc2ccccc2)c1=O (stereo not given)
  -2% | 7%
O=S(=O)(NCC(c1ccco1)S(=O)(=O)c1cccs1)c1ccc(F)c(C(F)(F)F)c1 (stereo not given)
  ? | 138%[activator]
Cc1ccn2c(c1)nc(=O)c1cc(S(=O)(=O)N3CCCCC3)ccc12
  -26% | -16%
N#Cc1nc(/C=C/c2cccs2)oc1N1CCCCCC1
  89%[activator] | 37%[activator]
CCc1cccc(NC(=O)c2oc3ccc4c(c3c2C)C(=O)CC(C)(C)O4)c1
  52%[activator] | 14%
COCCN(CCOC)C(=O)c1cc(-c2ccc(C)cc2)nc2ccccc12
  96%[activator] | 4%
Cc1ccc(C(=O)Nc2ccccc2NS(=O)(=O)c2cccs2)cc1[N+](=O)[O-]
  22% | 24%
O=C(Nc1ccccn1)c1cc(-c2ccco2)nc2ccccc12
  25% | 17%
CCc1cc(C(=O)N2CCCC2c2ccc(C)cc2)no1 (stereo not given)
  0% | 10%
O=C(NCc1ccco1)c1n[nH]c(=O)c2ccccc12
  25% | 4%
Cc1cccc(Cn2c(SCc3ccc(C(=O)NCc4cccs4)cc3)nc3cccnc32)c1
  -18% | 0%
CC(OC(=O)c1cccc(S(=O)(=O)N2CCCCC2)c1)C(=O)N1CCc2ccccc21 (stereo not given)
  7% | -9%

Of the compounds above, these have a CF3 group:
Each structure is followed by: StopGo FLuc | 2A Renilla
CCOc1ccc2c(=O)c(Oc3ccc(OC)cc3)c(C(F)(F)F)oc2c1
  0% | 23%
Nc1ncc(S(=O)(=O)Nc2ccc(OC(F)(F)F)cc2)cn1
  -12% | 8%
C[C@H]1COc2cc(Br)ccc2S(=O)(=O)N1Cc1cn(Cc2ccc(C(F)(F)F)cc2)nn1
  0% | 1%
N#C/C(=C/c1ccccc1OC(F)(F)F)c1ccccn1
  1% | 3%
O=S(=O)(NCC(c1ccco1)S(=O)(=O)c1cccs1)c1ccc(F)c(C(F)(F)F)c1 (stereo not given)
  ? | 138%[activator]

Screening results as filed in PubChem BioAssay.
